EPAC2 ant val = Validation qHTS for antagonist of cAMP-regulated guanine nucleotide exchange factor 4 (EPAC2); EPAC2 Rap1B BODIPY-GDP exchange, fluorescence; Potency, µM (titrated, usually from 112 µM), without a hit: at the highest dose activity, negative = inhibition, most hits filed as inhibitors; hit rate 1.7% among 16,000; AID 1645886, 2021; active = well fitted inhibition curve with a large enough effect; inconclusive = small, poorly fitted or top-dose-only effect; inactive = no such curve, though single readings can be large or run the other way;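 note: 100% = activation by cAMP agonist control; nearly all actives have a fitted effect of over 40% in size; the record reuses the description of the EPAC1 agonist screen; inactives centre near -10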
Target sequence (Q8WZA2 whole entry, looked up): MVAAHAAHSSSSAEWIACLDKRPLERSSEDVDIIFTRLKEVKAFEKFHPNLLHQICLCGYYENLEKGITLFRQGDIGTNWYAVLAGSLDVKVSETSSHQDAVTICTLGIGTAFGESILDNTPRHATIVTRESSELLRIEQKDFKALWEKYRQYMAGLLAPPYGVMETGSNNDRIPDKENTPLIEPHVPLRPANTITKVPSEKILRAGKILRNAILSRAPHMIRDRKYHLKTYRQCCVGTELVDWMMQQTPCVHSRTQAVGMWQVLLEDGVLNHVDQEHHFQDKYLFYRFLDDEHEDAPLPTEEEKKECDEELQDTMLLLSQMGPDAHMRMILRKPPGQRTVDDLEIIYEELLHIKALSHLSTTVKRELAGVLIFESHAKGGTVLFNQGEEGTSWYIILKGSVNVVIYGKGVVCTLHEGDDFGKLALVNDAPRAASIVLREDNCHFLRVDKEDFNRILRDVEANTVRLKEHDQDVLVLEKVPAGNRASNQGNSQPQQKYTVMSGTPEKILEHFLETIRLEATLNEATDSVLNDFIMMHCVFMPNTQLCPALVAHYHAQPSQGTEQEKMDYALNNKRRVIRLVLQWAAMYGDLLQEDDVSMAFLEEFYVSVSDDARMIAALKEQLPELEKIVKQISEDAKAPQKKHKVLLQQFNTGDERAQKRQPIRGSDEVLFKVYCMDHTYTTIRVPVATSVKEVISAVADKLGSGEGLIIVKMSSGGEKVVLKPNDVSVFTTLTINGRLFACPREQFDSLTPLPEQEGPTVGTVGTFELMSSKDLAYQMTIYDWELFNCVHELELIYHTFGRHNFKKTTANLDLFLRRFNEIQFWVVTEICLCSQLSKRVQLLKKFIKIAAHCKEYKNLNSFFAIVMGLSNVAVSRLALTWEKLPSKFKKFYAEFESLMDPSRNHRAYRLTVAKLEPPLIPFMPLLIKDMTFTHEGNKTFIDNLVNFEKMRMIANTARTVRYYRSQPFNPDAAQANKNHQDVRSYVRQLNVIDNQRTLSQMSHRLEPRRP
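Fluorescent exchange read-out: 100 nM EPAC2 with 250 nM RAP1B–BODIPY-GDP and 50 uM GDP; BODIPY-GDP release lowers fluorescence. Read at 480/540 nm every 5 min for 30 min at room temperature; normalized to 6.5 mM cAMP.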
Active calls of the source: *; ? = inconclusive; & = joins results of further samples; ! = not confirmed by another sample; [ ] = dose if it differs, or a comment. Potency is the fitted concentration of half-maximal effect.

compound | EPAC2 ant val
CC[C@]12CCCN3CCC4(c5ccccc5NC4C(C(=O)O)C1)C32 (stereo partly drawn) | -21.1%
O=C(Nc1ccc(Br)cc1)c1cc(Br)cc(Br)c1O | -9.5%
CC1(C)C(=O)C=C[C@@]2(C)C1=C(O)C(=O)[C@@]1(C)C2CC[C@@]2(C)C(c3ccoc3)C[C@H]3O[C@@]321 (stereo partly drawn) | -15.5%
CCOC(OCC)P(=O)(O)CCCN | 4.9%&-18.9%
C[C@H](NC(=O)[C@@H](N)Cc1ccc(O)cc1)C(=O)N[C@@H](Cc1ccccc1)C(=O)N[C@@H](Cc1ccccc1)C(N)=O | -12.0%[11.4 µM]
NC(N)=NOCC[C@H](N)C(=O)O | -9.4%&-9.4%
COc1ccc(C2Oc3c(I)c(OC)cc(OC)c3CC2O)cc1OC (stereo not drawn) | -20.2%
CN1CCC(=O)N(CCN=[N+]=[N-])CC1 | -15.4%
CCCCC/C=C\C/C=C\C/C=C\C=C\[C@H](CCCC(=O)O)OO | -24.5%[1.17 µM]
COc1ccc(C(=O)N2CCCC2=O)cc1 | -6.2%&-21.6%&-14.3%&6.0%
CC(C)NC(=O)N1CCC2(CCNCC2)CC1 | -16.8%
CCCCCCCCCC(CC)c1ccc(S(=O)(=O)O)cc1 (stereo not drawn) | 56.2µM*!
C/C(O)=C(/C#N)C(=O)Nc1cc(Br)ccc1Br | ?
C[C@]12N[C@H](Cc3ccccc31)c1ccccc12 | -14.7%&2.9%&-3.5%
O=C1CCCN1CC#CCN1CCCC1 | -7.8%&-8.3%&6.1%&-18.3%
Cc1cc(C)cc(C(=O)OC2C[C@H]3CC[C@@H](C2)N3C)c1 (stereo partly drawn) | -4.8%&-20.4%
COc1ccc2c(c1OC)C(=O)O[C@@H]2C1c2cc3c(cc2CCN1C)OCO3 (stereo partly drawn) | -13.3%
CC1O[C@@H](OC2CC[C@@]3(C=O)C4CC[C@]5(C)C(C6=CC(=O)OC6)CC[C@@]5(O)C4CC[C@]3(O)C2)C(O)C(O)C1O (stereo partly drawn) | -9.3%
FC(F)(F)c1cccc(N2CCNCC2)c1 | ?
Clc1ccc(C(c2ccc(Cl)cc2)C(Cl)(Cl)Cl)cc1 | ?
C[C@@H](CO)NC(=O)[C@@H]1C=C2c3cccc4[nH]cc(c34)C[C@H]2N(C)C1 | 52.3%&14.0%[activator]
C=C(C)C1Cc2c(ccc3c2OC2COc4cc(OC)c(OC)cc4C2C3=O)O1 (stereo not drawn) | ?
CC(C)=CCCC1(C)C=Cc2c(O)c3c(c(CC=C(C)C)c2O1)OC12C(CC4CC1C(C)(C)OC2(C/C=C(/C)C(=O)O)C4O)C3=O (stereo not drawn) | -11.5%
O=C(Nc1ccccc1)N1CCCC2(CCN(C(=O)Oc3ccccc3)CC2)C1 | ?
CCN(CC)C(=O)/C(Cl)=C(\C)OP(=O)(OC)OC | 20.9%
COc1ccc2c(C(=O)c3ccc(Cl)cc3)c(C)n(CC(=O)O)c2c1 | 9.8%
CN1C2CCC1CC(OC(c1ccccc1)c1ccccc1N)C2 (stereo not drawn) | 1.0%&-15.3%&-6.1%
CCOP(=S)(OCC)Oc1nc(Cl)c(Cl)cc1Cl | ?
CC(=O)[C@H]1CC[C@H]2[C@@H]3CC[C@@H]4C[C@H](O)CC[C@]4(C)[C@H]3CC[C@]12C | -27.3%
CC[N+]1(C)CCCC(OC(=O)C(O)(c2ccccc2)c2ccccc2)C1 (stereo not drawn) | -20.2%
CC[C@H](O)C(C[C@H](C)N(C)C)(c1ccccc1)c1ccccc1 | 28.5%[239 µM]
CN1CCCCC1c1ccc(-c2cccnc2)nc1 (stereo not drawn) | 12.2%&3.6%
O=c1ccc2cc(O[C@@H]3O[C@H](CO)[C@@H](O)[C@H](O)[C@H]3O)c(O)cc2o1 | -6.5%[56.6 µM]
C[C@@H]1O[C@@H](O[C@H]2C[C@@H](O)[C@]3(CO)[C@@H]4C(CC[C@]3(O)C2)[C@@]2(O)CC[C@H](C3=CC(=O)OC3)[C@@]2(C)C[C@H]4O)[C@H](O)[C@H](O)[C@H]1O (stereo partly drawn) | -16.6%&-13.5%
CN1C(=S)CN=C(c2ccccc2)c2cc(Cl)ccc21 | ?
CCCCCCC(C)(C)c1ccc([C@@H]2C[C@H](O)CC[C@H]2CCCO)c(O)c1 | ?
O[C@@H]1CCCN2C[C@@H](O)[C@@H](O)C12 (stereo partly drawn) | -1.4%[239 µM]
CCOC(=O)C1C(C=C(C)C)C1(C)C (stereo not drawn) | -9.8%
COP(=S)(OC)SCn1nnc2ccccc2c1=O | -5.0%
CCC(=O)O[C@]1(c2ccccc2)CCN(C)C[C@H]1C | 7.0%
CCC1CN2CCC1CC2C(O)c1ccnc2ccc(OC)cc12 (stereo not drawn) | -10.7%
c1ccc(N=Nc2ccccc2)cc1 | -12.8%
C[C@]12CC[C@H]3[C@@H](CCC4=CC(=O)CC[C@@H]43)[C@@H]1CC[C@@H]2O | 22.0%&-7.7%
O[C@@H]1[C@H](O)[C@H]2[C@@H](O)CCN2C[C@@H]1O | -14.2%
CCCN1C[C@H](C)N([C@H](c2ccc(C(=O)N(CC)CC)cc2)c2cccc(OC)c2)C[C@H]1C | ?
NCCc1c[nH]c2ccc(C(N)=O)cc12 | -11.6%&-7.0%&-26.9%
CC1=C[C@@H]2c3cccc4[nH]cc(c34)C[C@H]2N(C)C1 | 41.8%[activator]
CC(C)NC(C)Cc1ccc(I)cc1 (stereo not drawn) | ?
CC(C)(C)C(O)C(Oc1ccc(Cl)cc1)n1cncn1 (stereo not drawn) | -28.3%[239 µM]
COC1=C[C@]23CCCN2CCc2cc4c(cc2[C@@H]3[C@@H]1O)OCO4 | -15.5%
COc1cc2c(cc1O)CC1c3c(cc(O)c(OC)c3-2)CCN1C (stereo not drawn) | -14.3%&-11.9%
C[Se]C[C@H](N)C(=O)O | -9.2%
N[C@@]1(C(=O)O)CC[C@@H](C(=O)O)C1 | -5.4%
CN(C)C1C(=O)C(C(N)=O)=C(O)[C@@]2(O)C(=O)C3=C(O)c4c(O)cccc4[C@@](C)(O)C3C[C@@H]12 (stereo partly drawn) | -9.0%
CC(=O)OC1(c2ccccc2)CCN(CCc2ccccc2)CC1 | 10.2%[239 µM]
C#C[C@]1(O)C=C[C@H]2[C@@H]3CCC4=CC(=O)CC[C@@H]4[C@H]3CC[C@@]21CC | -16.4%

(listing goes on)
compound | EPAC2 ant val
CCOC(=O)[C@]12Cc3cc(OC)ccc3[C@H]1N(Cc1ccccc1)C(=O)c1cc(F)c(F)cc12 | 11.7%
CC(C)(C)c1cc(C=C(C#N)C#N)cc(C(C)(C)C)c1O | ?
CN(C)CCO | 5.6%
C[N+](C)(C)CCOC(=O)C(O)(c1ccccc1)c1ccccc1 | 11.6%
COc1ccc2c(c1O)-c1cccc3c1[C@@H](C2)N(C)CC3 | -8.2%
C[C@](N)(CCP(=O)(O)O)C(=O)O | -16.9%
CC1=C2C3OC(=O)[C@H](C)[C@H]3CC[C@@]2(C)C=CC1=O (stereo partly drawn) | -11.3%
C[N+](C)(C)CC(=O)O | -6.2%

Shown field by field: 2 of the compounds above.
Compound: C[C@]12N[C@H](Cc3ccccc31)c1ccccc12
  EPAC2 ant val: -14.7%&2.9%&-3.5%

Compound: O=C1CCCN1CC#CCN1CCCC1
  EPAC2 ant val: -7.8%&-8.3%&6.1%&-18.3%

Next entries follow:
compound | EPAC2 ant val
O=c1[nH]c2ccccc2n1CCCN1CCC(n2c(=O)[nH]c3cc(Cl)ccc32)CC1 | -7.0%&7.5%&-22.2%&-13.1%
CCN1C[C@]2(COC)CC[C@H](OC)[C@@]34C5C[C@@H]6[C@@H](OC)C[C@@]7(OCO[C@@]7([C@@H](O)C23)[C@@H]14)C5[C@H]6OC (stereo partly drawn) | -3.9%
CCC(Oc1ccc(Cl)cc1)C(=O)OC1CC2CCC(C1)N2C (stereo not drawn) | ?
CCCCCCCCCCCCCC(=O)O[C@@H]1[C@@H](C)[C@@]2(O)[C@@H](C=C(CO)C[C@@]3(O)C(=O)C(C)=C[C@@H]23)C2C(C)(C)[C@@]21OC(C)=O (stereo partly drawn) | ?
CC[C@@]1(O)CC(O)c2c(cc3c(c2O)C(=O)c2c(O)ccc(O)c2C3=O)C1C(=O)OC (stereo partly drawn) | 37.9%[activator]
c1ccc(C2(N3CCCC3)CCCCC2)cc1 | -0.9%
O=C(NC1CCCCC1)[C@@H]1CC=C[C@@H]2CCN(Cc3ccccc3)C(=O)[C@@H]21 | -18.9%
ClC1=C(Cl)C2(Cl)C3C(Cl)C=CC3C1(Cl)C2(Cl)Cl (stereo not drawn) | ?
CC(C)(C)NCC(O)c1cc(Cl)c(N)c(C(F)(F)F)c1 (stereo not drawn) | -15.7%
CNCC/C=C/c1cccnc1 | -0.2%
CCCCC/C=C\C=C\[C@H](CCCCCCCC(=O)O)OO | -18.5%[1.17 µM]
c1ccc(N2CC3(CCNCC3)C2)nc1 | ?
ClC1=C(Cl)C2(Cl)C(CBr)CC1(Cl)C2(Cl)Cl (stereo not drawn) | -4.4%
CC(=O)OCC1=C(C(=O)O)N2C(=O)[C@@H](NC(=O)CCC[C@@H](N)C(=O)O)[C@H]2SC1 | ?
CCC(=O)OC1CCC2C3CCC4=CC(=O)CC[C@@]4(C)C3CC[C@]12C (stereo partly drawn) | -18.1%
Oc1ccc2c3c1O[C@H]1c4[nH]c5c(c4C[C@@]4(O)[C@@H](C2)N(CC2CC2)CC[C@]314)C[C@]1(O)[C@H]2Cc3ccc(O)c4c3[C@@]1(CCN2CC1CC1)[C@@H]5O4 | -24.6%
CNC(C)CC1CCCCC1 (stereo not drawn) | ?
CN1CCCC2(CCN(C(=O)c3ccncc3)CC2)C1 | -12.6%
CCCCCCCCCCCC[N+](C)(C)CCOc1ccccc1 | ?
O=C1C(I)=CC(=C(c2cc(I)c(O)c(I)c2)c2ccccc2C(=O)O)C=C1I | 44.7µM*!
N#C/C(=C/c1ccc(O)c(O)c1)C(N)=S | -23.7%
CN1CCCC2(CCN(C(=O)Oc3ccccc3)CC2)C1 | -19.0%
COc1cc(CC(C)N)cc2c1OCO2 (stereo not drawn) | -9.5%[239 µM]
O=C(Nc1cccc(F)c1)N1CCCC2(CCN(C(=O)Oc3ccccc3)CC2)C1 | ?
C[C@](O)(CS(=O)(=O)c1ccc(F)cc1)C(=O)Nc1ccc(C#N)c(C(F)(F)F)c1 | 97.5%[activator]
c1cncc([C@@H]2CCCCN2)c1 | -15.4%
CNC(=O)Oc1ccccc1C(=O)Nc1ccccc1 | 6.8%
S=C=NCc1ccccc1 | -18.7%
CCC1(c2ccccc2)CCC(=O)NC1=O (stereo not drawn) | -14.8%
C[C@H]1[C@@H]2Cc3ccc(O)cc3[C@@]1(C)CCN2C | 17.8%[453 µM]
COc1ccc(OC)c([C@@H](O)[C@H](C)N)c1 | -9.2%
NCC(=O)c1cccc([N+](=O)[O-])c1 | 40.3%[activator]
NNCc1ccccc1 | -1.5%
COc1cc2c(cc1OC)-c1c(OC)c(OC)c(C=O)c3c1[C@H](C2)N(C)CC3 | -5.4%
CCN(CC)C(C)C(=O)c1ccccc1 (stereo not drawn) | -11.6%
CN(N=O)c1ccc(O)c(O)c1 | ?
ClC=C(Cl)Cl | -1.1%
O[C@H]1[C@H](O)[C@@H](O)CN2CC[C@H](O)[C@H]12 | -4.6%[239 µM]
N[C@H](C(=O)O)c1cc(=O)[nH]o1 | -8.8%
NC(=O)COc1c(F)cc(SCCNS(=O)(=O)c2ccccc2)cc1F | -13.3%
CC(C)Nc1nc(Cl)nc(NC(C)C)n1 | -5.7%
Oc1ccc(Cl)cc1Cc1ccccc1 | ?
CCCCCCCCC(=O)NCc1ccc(O)c(OC)c1 | ?
C[C@H]1C[C@H](C)C(=O)[C@@H]([C@H](O)CC2CC(=O)NC(=O)C2)C1 | -21.3%
CCCCCN(C)CCC(O)(P(=O)(O)O)P(=O)(O)O | 1.4%&16.1%
CCOC(=O)c1ncn2c1[C@H]1CCCN1C(=O)c1cc(OC)ccc1-2 | -18.8%
C=CCN1CCC23c4c5ccc(O)c4OC2/C(=N/N=C2\CCC4(O)C6Cc7ccc(O)c8c7C4(CCN6CC=C)C2O8)CCC3(O)C1C5 (stereo not drawn) | -21.3%
CC(C)CN1CCCC2(CCN(C(=O)c3ccncc3)CC2)C1 | -10.2%
CNCC(O)c1ccc(O)cc1 (stereo not drawn) | -9.6%
CC(C)=CCN1CC[C@]2(C)c3cc(O)ccc3C[C@H]1[C@H]2C | -10.7%[239 µM]
CC(C)c1ccc2c(c1O)CCC1C3=C(CC[C@]21C)C(=O)OC3 (stereo partly drawn) | ?
CC1OC(=O)C(C(C)C)NC(=O)C(C(C)C)OC(=O)C(C(C)C)NC(=O)C(C)OC(=O)C(C(C)C)NC(=O)C(C(C)C)OC(=O)C(C(C)C)NC(=O)C(C)OC(=O)C(C(C)C)NC(=O)C(C(C)C)OC(=O)C(C(C)C)NC1=O (stereo not drawn) | -9.0%[56.6 µM]
Nc1ccc([As](=O)(O)O)cc1 | -5.7%
Clc1ccc(COC(Cn2ccnc2)c2ccc(Cl)cc2Cl)c(Cl)c1 (stereo not drawn) | ?
CC(CCc1ccccc1)NC(C)C(O)c1ccc(O)cc1 (stereo not drawn) | -8.6%&7.6%&-7.9%

Not all compounds are listed; the hit share may differ from the screen's.
